# High-throughput results as filed in PubChem BioAssay.
# FGF22 binding – FGF22 (human) thermal shift binding. Q9HCT0. recombinant FGF22 thermal shift, SYPRO orange fluorescence; percent of sucrose octasulfate shift, DMSO zero. calls only at 9.99 µM. actives 1.5% (n = 340,000);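 active means melting point raised past a set limit in the mean and every replicate; three in four hits are not shown here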
# Target sequence (Q9HCT0 whole entry, looked up): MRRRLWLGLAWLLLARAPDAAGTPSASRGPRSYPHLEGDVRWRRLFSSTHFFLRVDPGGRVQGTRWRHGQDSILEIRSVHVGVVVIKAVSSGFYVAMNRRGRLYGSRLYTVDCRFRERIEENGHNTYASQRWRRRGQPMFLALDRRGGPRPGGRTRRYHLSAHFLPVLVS
# AF4-AF9 inh – blocks AF4 peptide binding to human AF9. P42568. AlphaScreen, biotin-AF4 peptide binding to FLAG-AF9. inhibition, % at 10 µM. actives 0.47% (n = 350,000);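 active means every replicate reaching a set inhibition limit, whatever the replicate mean, cut at about 25% in these data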;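 further: 0% = plate neutral control median and 100% = total signal loss; the record names both 10 and 1 µM as test concentration; the first replicate is given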
# Target sequence (P42568 whole entry, looked up): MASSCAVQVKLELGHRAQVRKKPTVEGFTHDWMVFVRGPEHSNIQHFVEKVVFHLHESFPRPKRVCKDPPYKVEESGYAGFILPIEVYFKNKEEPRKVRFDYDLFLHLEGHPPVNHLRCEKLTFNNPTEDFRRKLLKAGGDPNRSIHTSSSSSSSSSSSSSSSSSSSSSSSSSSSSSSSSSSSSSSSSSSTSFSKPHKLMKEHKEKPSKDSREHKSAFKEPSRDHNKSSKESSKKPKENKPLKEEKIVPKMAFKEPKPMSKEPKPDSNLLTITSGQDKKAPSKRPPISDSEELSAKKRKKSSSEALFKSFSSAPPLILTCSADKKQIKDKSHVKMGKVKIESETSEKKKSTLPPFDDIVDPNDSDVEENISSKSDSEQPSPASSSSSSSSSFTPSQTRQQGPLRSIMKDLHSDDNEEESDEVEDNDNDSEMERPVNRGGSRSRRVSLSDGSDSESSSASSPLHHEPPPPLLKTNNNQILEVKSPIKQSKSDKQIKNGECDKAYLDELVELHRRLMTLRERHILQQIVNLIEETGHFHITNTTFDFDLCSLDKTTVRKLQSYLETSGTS
# rRNA inh HTS – inhibitors of bacterial rRNA selective over humanized ribosomes | E. coli WT GFP vs humanized-ribosome RFP mutants, fluorescence, 24 h; hits give low values; DMSO median 0, no signal -100 | actives 1.6% (n = 350,000) | GFP signal change (wild-type ribosome), % (test concentration not listed);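 active means significant combined selectivity score with lowered wild-type GFP, culture density cut under 30%, mutant RFP and density less affected; inactive means any of these conditions unmet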; further: one replicate is shown; some compounds called inactive have numbers as strong as hits
# rRNA inh HTS OD600 – recorded beside rRNA inh HTS, whose call it bears; OD600 change, %; measured here: OD600 growth;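 optical density of the mix in the first replicate; 0 = DMSO median and -100 = no signal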
# rRNA inh HTS RFP – further read-out of rRNA inh HTS, marked with its call; RFP signal change, %; measured here: RFP humanized mutant strains;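 first replicate; 0 = DMSO median and -100 = no signal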
# * marks the source's active call; other numbers are inactive results; i = inactive; & = joins results of further samples. Not all compounds are listed (hit frequency here may not be typical).
SMILES,FGF22 binding,AF4-AF9 inh,rRNA inh HTS,rRNA inh HTS OD600,rRNA inh HTS RFP
CO[C@@H](CN(C)S(=O)(=O)c1ccc(F)cc1)[C@H](C)CN(C(=O)Nc1ccccc1F)[C@@H](C)CO,i,-3.8,-3.3,0.8,-3.7
COc1cccc(-c2ccc3c(c2)O[C@@H](CN(C)CC2CC2)[C@@H](C)CN([C@@H](C)CO)S3(=O)=O)c1,i,8.3,-7.5,-2.1,1.9
Cc1cccc(C)c1Cn1c(C)c(C(=O)NCc2ccccc2C(F)(F)F)sc1=O,i,9.6,-11.8,-9.1,-9.2
C/C=C/c1cnc2c(c1)C(=O)N([C@@H](C)CO)C[C@H](C)[C@H](CN(C)C(=O)Cc1ccccn1)O2,i,-2.2,0.0,1.8,-0.8
CC(C)C#Cc1ccc2c(c1)O[C@H](CN(C)Cc1ccccc1)[C@@H](C)CN([C@H](C)CO)S2(=O)=O,i,1.2,6.6,4.6,0.8
COc1cccc(-c2ccc3c(c2)O[C@@H](CN(C)C(=O)C2CCOCC2)[C@H](C)CN([C@H](C)CO)S3(=O)=O)c1,i,2.0&4.0&2.1,-5.4&-0.8,-3.8&-6.3,2.9&-2.6
C[C@@H]1CN([C@@H](C)CO)C(=O)Cc2cc(NS(=O)(=O)c3cn(C)cn3)ccc2O[C@H]1CN(C)S(=O)(=O)c1ccc(Cl)cc1,i,-0.3,3.0,-0.4,0.3
NC(=O)c1ccc(NC(=O)c2ccc(COc3ccccc3Br)cc2)cc1,i,-1.6,-2.6,-2.1,-1.4
O=C(c1cccnc1)N1C[C@H]2[C@@H](c3ccccc31)[C@H](CO)N2CC1CCCCC1,i,2.5,0.2,-10.5,-3.5
C[C@@H]1CN([C@@H](C)CO)C(=O)c2cc(-c3ccc(C#N)cc3)cnc2O[C@@H]1CN(C)C(=O)Nc1ccc(C(F)(F)F)cc1,i,-0.7,-11.4,-12.6,3.8
CCC(c1nnnn1-c1ccc2c(c1)OCCO2)N1CCN(C(C)=O)CC1 (stereo not given),i,-3.0,15.9,1.4,3.8
CNC(=O)C[C@@H]1CC[C@@H]2[C@H](COC[C@H](O)CN2S(=O)(=O)c2ccccc2Cl)O1,i,-3.0&0.3,-2.2&6.7,1.1&11.3,-4.2&2.3
COc1ccc(CNC(=O)C[C@@H]2C=C[C@@H](NC(=O)c3ccc4c(c3)OCO4)[C@H](CO)O2)cc1,i,-3.6,2.4,6.3,-0.4
CC(=O)N1CCN(C(c2ccccc2)c2nnnn2C(C)(C)C)CC1 (stereo not given),i,-2.6,28.1,16.1,2.4
O=C(Nc1ccc2c(c1)[C@@H]1C[C@H](CC(=O)N3CCCCC3)O[C@@H](CO)[C@@H]1O2)NC1CCCCC1,i,-1.8,-1.2,22.8,-2.5
Cc1noc(C)c1NC(=O)Nc1ccc2c(c1)C(=O)N([C@@H](C)CO)C[C@@H](C)[C@@H](CN(C)C(=O)c1ccccc1)OCCCC[C@@H](C)O2,i,-4.2,-1.1,-3.6,1.9
C[C@@H]1CN([C@@H](C)CO)C(=O)c2cc(NS(=O)(=O)c3ccc(F)cc3)ccc2O[C@@H]1CN(C)Cc1ccc(Oc2ccccc2)cc1,i,1.7,-10.4,-33.4,10.8
C[C@H]1C(=O)N(C)CCN1C(=O)c1ccc(OC2CCN(CCc3ccccc3)CC2)cc1,i,-4.4,3.3,1.4,-1.8
COc1ccc(C#Cc2ccc3c(c2)O[C@H](CN(C)C(C)=O)[C@@H](C)CN([C@H](C)CO)S3(=O)=O)cc1,i,6.4,-5.6,-27.2,2.4
Clc1cccc(-c2cccc3nccn23)c1Cl,i,-0.9,-19.6,-17.6,-10.3
C[C@@H]1CN([C@@H](C)CO)C(=O)c2cc(NC(=O)NC3CCCCC3)ccc2O[C@@H](C)CCCCO[C@H]1CN(C)S(=O)(=O)c1cn(C)cn1,i,-3.2,-1.2,-1.2,-0.5
O=C(O)CSc1ccn(Cc2ccccc2)c1,i,-1.7,2.8,12.4,-2.9
FC(F)C(F)(F)Oc1cccc(Nc2nccn3c(-c4cccc5ccccc45)cnc23)c1,i,6.7,11.1,9.2,17.0
CNC[C@@H]1Oc2cc(C#CC(C)(C)O)ccc2S(=O)(=O)N([C@@H](C)CO)C[C@H]1C,i,-2.0,1.9,3.7,-0.9

# Part of the list above, with the structure last:
FGF22 binding	AF4-AF9 inh	rRNA inh HTS	rRNA inh HTS OD600	rRNA inh HTS RFP	Molecule
i	-2.6	28.1	16.1	2.4	CC(=O)N1CCN(C(c2ccccc2)c2nnnn2C(C)(C)C)CC1 (stereo not given)
i	-1.8	-1.2	22.8	-2.5	O=C(Nc1ccc2c(c1)[C@@H]1C[C@H](CC(=O)N3CCCCC3)O[C@@H](CO)[C@@H]1O2)NC1CCCCC1
i	-4.2	-1.1	-3.6	1.9	Cc1noc(C)c1NC(=O)Nc1ccc2c(c1)C(=O)N([C@@H](C)CO)C[C@@H](C)[C@@H](CN(C)C(=O)c1ccccc1)OCCCC[C@@H](C)O2
i	1.7	-10.4	-33.4	10.8	C[C@@H]1CN([C@@H](C)CO)C(=O)c2cc(NS(=O)(=O)c3ccc(F)cc3)ccc2O[C@@H]1CN(C)Cc1ccc(Oc2ccccc2)cc1
i	-4.4	3.3	1.4	-1.8	C[C@H]1C(=O)N(C)CCN1C(=O)c1ccc(OC2CCN(CCc3ccccc3)CC2)cc1

# Other results
SMILES,FGF22 binding,AF4-AF9 inh,rRNA inh HTS,rRNA inh HTS OD600,rRNA inh HTS RFP
CC(=O)N(C)C[C@@H]1Oc2ncc(C#C[C@H](C)O)cc2C(=O)N([C@H](C)CO)C[C@@H]1C,i,-3.9,5.2,6.8,-3.6
CC(=O)N[C@H]1CC[C@@H](CCNC(=O)C2CCC2)O[C@H]1CO,i,-1.7,2.1,1.8,-2.4
COc1ccccc1-c1ccc([C@@H]2[C@H](C#N)N(C(=O)C3CC3)[C@H]2CO)cc1,i,0.2,2.5,1.7,0.3
O=S1(=O)CC(N2CC=CC2)CN1C1CCCCC1 (stereo not given),i,-0.3,6.5,-2.3,0.5
Cc1noc(C)c1S(=O)(=O)Nc1ccc2c(c1)C(=O)N([C@@H](C)CO)C[C@@H](C)[C@H](CN(C)S(=O)(=O)c1cn(C)cn1)OCCCC[C@H](C)O2,i,-2.7,5.0,15.8,-3.2
C[C@H](CO)N1C[C@H](C)[C@H](CN(C)C(=O)c2cccc(F)c2)Oc2ncc(-c3cccnc3)cc2C1=O,i,-3.4,0.2,10.0,-2.9
CC(C)[C@@H](C)NC(=O)N(C)C[C@H]1OCc2ccccc2-c2c(n(C)c3ccccc23)C(=O)N([C@H](C)CO)C[C@@H]1C,i,6.9,-5.1,-1.7,14.1
COc1ccc(S(=O)(=O)Nc2ccc3c(c2)CC(=O)N([C@@H](C)CO)C[C@@H](C)[C@@H](CN(C)C(=O)Nc2ccc(C(F)(F)F)cc2)O3)cc1,i,-2.1,-4.5,-4.0,1.0
Cc1ccc(S(=O)(=O)N2CCN(C(=O)CN3C(=O)NC(C)(c4ccc5ccccc5c4)C3=O)CC2)cc1 (stereo not given),i,-7.5,2.3,3.6,2.5
Cc1ccc(S(=O)(=O)N(C)C[C@@H]2Oc3c(NS(=O)(=O)c4cccs4)cccc3C(=O)N([C@@H](C)CO)C[C@H]2C)cc1,i,-1.0,-2.8,-8.1,0.6
CC(C)NC(=O)Nc1ccc2c(c1)C(=O)N([C@H](C)CO)C[C@H](C)[C@@H](CN(C)C(=O)Nc1ccc(F)cc1)OCCCC[C@@H](C)O2,i,-3.1,6.0,8.5,-1.4
COc1ccc(S(=O)(=O)Nc2ccc3c(c2)C(=O)N([C@@H](C)CO)C[C@H](C)[C@H](CN(C)S(=O)(=O)c2cn(C)cn2)OCCCC[C@@H](C)O3)cc1,i,-1.5,-1.3,0.5,1.0
CCOC(=O)C1(C)CCCCCN1C(=O)c1ccc(OC)c(C(F)(F)F)c1 (stereo not given),i,-7.9,-4.0,-6.2,-1.0
COc1ccc(CC(N)c2csc(Nc3ncccn3)n2)cc1 (stereo not given),i,3.7,7.1,14.2,0.3
COc1ccccc1NC(=O)N1CCCCN2[C@@H](CO)[C@@H](c3ccc(-c4cccc(C#N)c4)cc3)[C@@H]2C1,i,-5.1,-5.6,-0.8,6.6
C[C@H](O)C#Cc1cnc2c(c1)C(=O)N([C@H](C)CO)C[C@@H](C)[C@@H](CN(C)Cc1ccccn1)O2,i,-2.1,4.7,5.6,-2.9
O=C(Nc1ccc(F)cc1)N1C[C@@H]2[C@H](c3ccccc31)[C@@H](CO)N2C(=O)Cc1cccnc1,i,-0.6,2.5,3.0,0.3
C[C@H](O)C#Cc1cnc2c(c1)C(=O)N([C@@H](C)CO)C[C@@H](C)[C@H](CN(C)C(=O)c1ccccc1F)O2,i,-0.5,4.3,7.5,-1.1
CCCN(C)C[C@@H]1OCCCC[C@H](C)Oc2ccc(NC(=O)Nc3ccc(C(F)(F)F)cc3)cc2C(=O)N([C@@H](C)CO)C[C@@H]1C,i,-0.3,-2.5,-2.5,4.6
C[C@@H]1CN([C@H](C)CO)C(=O)Cc2cc(NC(=O)C3CCCCC3)ccc2O[C@H]1CN(C)Cc1ccc(C(F)(F)F)cc1,i,-1.3,-2.6,-3.5,-0.8
O=C(Nc1ccccc1F)N[C@H]1CC[C@H](CCNS(=O)(=O)c2ccccc2)O[C@@H]1CO,i,-0.7,-5.1,-4.2,3.0
Cc1noc(C)c1S(=O)(=O)Nc1ccc2c(c1)C(=O)N([C@H](C)CO)C[C@H](C)[C@@H](CN(C)C)O2,i,-2.4,0.6,-0.9,-1.8
COc1ccccc1-c1ccc2c(c1)O[C@@H](CN(C)C)[C@@H](C)CN([C@H](C)CO)S2(=O)=O,i,-2.1,9.5,10.8,-1.7
COc1ccc(S(=O)(=O)N(C)C[C@H]2OCCCC[C@H](C)Oc3ccc(NC(=O)CCC(F)(F)F)cc3C(=O)N([C@H](C)CO)C[C@H]2C)cc1,i,-1.3,-5.6,-6.9,3.0
CO[C@H]1CN(C)C(=O)c2cc(NS(=O)(=O)c3ccccc3)ccc2OC[C@@H](C)N(Cc2ccccn2)C[C@H]1C,i,0.4,1.9,1.7,2.4
O=C(O)C1(Nc2ccccc2)CCCC1,i,-2.5,6.2,9.3,-2.6
O=C(C[C@H]1CC[C@H](NC(=O)Cc2ccccn2)[C@H](CO)O1)NCCCN1CCOCC1,i,-1.4,-2.1,4.7,-2.5
C[C@@H]1CCCCO[C@@H](CN(C)C(=O)Nc2ccc(F)cc2)[C@@H](C)CN([C@H](C)CO)C(=O)c2cc(NC(=O)c3ccccc3)ccc2O1,i,-1.4,2.1,-2.7,2.6
COc1cccc(NC(=O)N[C@@H]2CC[C@H](CC(=O)NCc3ccncn3)O[C@@H]2CO)c1,i,3.4,2.4,9.4,-1.4
Cc1ccc(S(=O)(=O)N(C)C[C@@H]2OCCCC[C@@H](C)Oc3ccc(NC(=O)CCCN(C)C)cc3C(=O)N([C@H](C)CO)C[C@H]2C)cc1,i,8.0,0.3,2.6,-1.3
C[C@H](CO)N1C[C@H](C)[C@H](CN(C)S(=O)(=O)CC(F)(F)F)OCc2ccccc2-c2c(n(C)c3ccccc23)C1=O,i,1.3,-7.3,3.0,-1.2
CC1CC=C(O)C12OCC(C)(C)CO2 (stereo not given),i,2.1,24.4,16.7,3.9
C[C@H]1CN([C@@H](C)CO)S(=O)(=O)c2ccc(/C=C/c3ccccc3)cc2O[C@@H]1CN(C)C(=O)c1ccncc1,i,14.3,-7.8,-13.0,1.7
O=C(C[C@H]1C=C[C@@H](NC(=O)Nc2cc(F)ccc2F)[C@H](CO)O1)NCCCN1CCOCC1,i,-4.3,2.5,-3.8,1.2
CSc1ccc(CNC(=O)C2(C)CCCN(C(C)=O)C2)cc1 (stereo not given),i,-0.5,11.1,26.3,1.8
CCCNC(=O)N(C)C[C@H]1Oc2ncc(-c3ccccc3F)cc2C(=O)N([C@@H](C)CO)C[C@H]1C,i,0.0,-0.2,10.0,0.7
CNC[C@H]1Oc2ccc(NC(=O)Nc3ccccc3)cc2CC(=O)N([C@@H](C)CO)C[C@H]1C,i,-2.2,0.9,0.4,0.7
C[C@@H]1CN([C@H](C)CO)C(=O)c2cc(NS(=O)(=O)c3cccs3)ccc2O[C@@H]1CN(C)Cc1ccc(Cl)c(Cl)c1,i,-0.8,-9.8,-53.1,18.5
COCc1cn(CC[C@H]2CC[C@H](NC(=O)c3ccncc3)[C@@H](CO)O2)nn1,i,-1.0,0.3,-1.5,2.2
O=C(Nc1ccccc1F)N1C[C@H]2[C@@H](c3ccccc31)[C@@H](CO)N2C(=O)C1CCCC1,i,-1.0,1.3,9.9,-1.5
COc1ccc(CN(C)C[C@@H]2Oc3ccc(NC(=O)C4CCCCC4)cc3C(=O)N([C@@H](C)CO)C[C@H]2C)cc1,i,-2.5,-1.5,6.2,-0.9
CCOC(=O)C1=CCN(S(=O)(=O)c2ccccc2F)C1c1ccc(Cl)cc1 (stereo not given),i,-1.1,-20.6,-47.0,-8.7
COc1nc(=O)n(C2C=CC(=O)O2)cc1F (stereo not given),i,-1.6,0.6,3.5,1.7
NC(=O)C1CC(=O)N(c2ccc(OCc3ccc(Cl)c(Cl)c3)cc2)C1 (stereo not given),i,-0.9,-10.1,-20.6,2.7
CCCN1[C@@H]2c3ccc(-c4cccnc4)c(=O)n3C[C@@H]2[C@@H](CO)[C@@H]1C(=O)NCCN1CCCC1,i,-0.7,-0.6,-0.1,0.6
